Source: PubChem (several laboratories)
RanGTP-Imp inh: disruptors of Ran-importin-beta complex formation – biochemical, FRET, CFP-Ran, YFP-importin-beta, homogeneous, primary screen | 300,000 tested, 1.1% active | cell-free CFP-Ran/YFP-importin-beta FRET ratio | inhibition, % (no concentration beside the values);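 active = most replicates above 15%; inconclusive = exactly half above 15%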;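 also: 0% = DMSO wells and 100% = Ran loaded with GDP instead of GTP; wells of about 40 µL received 100 nL stock; the first replicate is given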
HNF4A DNA FP: change in binding of human HNF4 alpha to DNA; HNF4a-FITC DNA binding, fluorescence polarization, 1 h; activity change, % at 10 µM; P41235; 360,000 tested, 0.3% active; AID 1224865; in the data active = activity change above about 30%, passing the limit was not always enough;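 also: controls were the assay level and a saturating level of protein; the project sought stronger binding though the title names inhibitors; some compounds called inactive have numbers as strong as hits; positive values seem to mean higher polarization but the record does not say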
Target sequence (P41235 whole entry, looked up): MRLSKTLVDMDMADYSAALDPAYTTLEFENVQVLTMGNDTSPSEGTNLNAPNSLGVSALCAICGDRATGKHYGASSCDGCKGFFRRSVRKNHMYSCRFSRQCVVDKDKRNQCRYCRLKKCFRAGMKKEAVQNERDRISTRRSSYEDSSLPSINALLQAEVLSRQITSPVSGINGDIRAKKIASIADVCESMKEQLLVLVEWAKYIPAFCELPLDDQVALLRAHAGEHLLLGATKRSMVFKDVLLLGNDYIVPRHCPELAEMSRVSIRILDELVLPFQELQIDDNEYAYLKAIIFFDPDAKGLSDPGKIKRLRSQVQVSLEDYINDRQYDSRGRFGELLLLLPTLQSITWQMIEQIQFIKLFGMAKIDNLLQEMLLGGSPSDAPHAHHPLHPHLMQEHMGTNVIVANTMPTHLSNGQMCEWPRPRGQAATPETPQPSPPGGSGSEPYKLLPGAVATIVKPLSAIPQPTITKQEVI
LANA-H2B inh: blocks KSHV LANA binding to histone H2A/H2B. cell-free LANA-H2A/H2B peptide, fluorescence polarization. inhibition, % (test concentration not listed). Q9QR71. 320,000 tested, 0.6% active. AID 2629; in the data active = inhibition mostly above about 10%, no sharp cut-off; inactive = mostly below about 6.7%;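 also: stock transfer was 7.5 nL into about 10 µL; 0% = median of vehicle wells and 100% = median of positive control wells; one replicate is shown; the record names a cut of 25% in any replicate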
Calb FLC: C. albicans growth modulation with fluconazole | 300,000 tested, 0.57% active | AID 1979 | growth inhibition, % (test concentration not listed) | C. albicans CaCi-2 (fluconazole-resistant clinical isolate) + fluconazole, Alamar Blue growth, 48 h;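 active = most replicates above 75%; inconclusive = exactly half above 75%; inactive = most below 75%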;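 also: all wells also contain fluconazole at 8 µg/ml as a sub-toxic cotreatment; 0% = median of DMSO wells and 100% = median of geldanamycin control wells; wells of about 8 µL received 7.5 nL stock; the first replicate is given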
Vif A3G: inhibitors of Vif binding to APOBEC3G peptide, primary screen, biochemical, TR-FRET, GST-Vif 1-94, biotin-A3G peptide, dose response retest (AID 1117319). TR-FRET GST-Vif / biotin-A3G peptide binding; higher % means a stronger effect; test concentration not given here; strong numbers were not always called active. inhibition, %, or IC50 in µM where a hit was titrated. 260,000 tested, 0.57% active;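 active = above the screen mean plus three standard deviations and confirmed in dose response; inconclusive = results disagree or hit not tested in dose response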;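 also: Vif residues 1-94 fused to GST binding biotinylated APOBEC3G peptide 110-148; 0% = full assay without inhibitor and 100% = GST in place of GST-Vif; retest series ran down from 100 µM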
ALR H2O2 inh: blocks human ALR sulfhydryl oxidase activity | AID 485317 | P55789 | 290,000 tested, 3.8% active | inhibition, % (concentration not given with the values) | purified ALR, DTT oxidation, H2O2 HRP-luminol luminescence;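 active = mean and each replicate at 75% or more; inconclusive = only one of the two met; inactive = neither met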;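 also: stock transfer was 7.5 nL into about 7.5 µL; 0% = neutral wells and 100% = wells with inactivated enzyme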
Target sequence (P55789 whole entry, looked up): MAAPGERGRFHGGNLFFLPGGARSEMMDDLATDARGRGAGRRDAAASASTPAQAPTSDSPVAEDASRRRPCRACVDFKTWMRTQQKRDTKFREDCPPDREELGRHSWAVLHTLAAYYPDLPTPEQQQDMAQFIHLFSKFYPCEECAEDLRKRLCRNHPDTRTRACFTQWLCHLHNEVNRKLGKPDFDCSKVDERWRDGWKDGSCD
Beta2AR agonist: activates human beta-2 adrenergic receptor causing internalization | response, % (no concentration beside the values) | 340,000 tested, 0.43% active | Am2.2-beta2AR cells, FAP receptor internalization, flow cytometry; reference of the scale not given here | AID 504454 | P07550;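 active = response above a set limit, near 3 SD of response in nonfluorescent compounds, cut at about 42% in these data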;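 also: stock transfer was 100 nL into about 11 µL; a reference agonist was the positive control; negative values mostly stem from fluorescent compounds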
Target sequence (P07550 whole entry, looked up): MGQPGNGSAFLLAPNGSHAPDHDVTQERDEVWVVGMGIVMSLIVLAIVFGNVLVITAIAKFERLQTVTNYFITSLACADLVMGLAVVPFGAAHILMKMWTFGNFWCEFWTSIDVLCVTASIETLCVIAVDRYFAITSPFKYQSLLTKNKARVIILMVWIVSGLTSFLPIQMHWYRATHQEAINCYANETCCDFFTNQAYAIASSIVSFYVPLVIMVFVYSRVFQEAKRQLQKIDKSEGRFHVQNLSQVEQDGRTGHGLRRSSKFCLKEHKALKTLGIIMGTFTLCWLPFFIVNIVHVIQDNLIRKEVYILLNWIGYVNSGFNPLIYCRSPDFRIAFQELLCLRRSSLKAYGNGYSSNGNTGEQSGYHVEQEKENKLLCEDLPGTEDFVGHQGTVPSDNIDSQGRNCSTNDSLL
An asterisk follows results filed as active; ? = inconclusive; · = no result given; & = joins results of further samples.

smiles	RanGTP-Imp inh	Beta2AR agonist	HNF4A DNA FP	Calb FLC	ALR H2O2 inh	Vif A3G	LANA-H2B inh
CC(=O)C[C@H](O)CC(=O)[C@H]1OC(=O)CCCCCc2ccccc21	·	-3	0.9	·	·	-3%	-0.2
COc1ccc(-c2cn3cccnc3n2)cc1	0.6	-8	-8.3	17	3	·	0.5
C=CCn1c(-c2cccn(Cc3cccc(Cl)c3)c2=O)n[nH]c1=S	-4.4	4	0.5	23	3	-8%	-2.6
CCO[C@H]1OC(C(=O)N2CCN(Cc3ccc4c(c3)OCO4)CC2)=C[C@@H](c2ccc(C(F)(F)F)cc2)[C@@H]1CCCO	-0.1	2	-0.7	3	-1	-7%	-2.3
CCOc1cc(/C=N/NC(=O)Nc2ccccc2)ccc1O	-2.1	1	3.1	-2	99*	22%	3.3
O=C(CSc1nnc(-c2ccco2)n1-c1ccccc1)NCc1ccc2c(c1)OCO2	-0.2	-17	-0.8	-17	1	4%	-0.3
Cn1c(SCC(=O)NCCc2ccccc2)nnc1-c1ccncc1	0.2	3	2.1	-12	-8	-1%	1.8
O=C(COC(=O)c1ccccc1)c1ccc(Br)cc1	1.3	-5	0.7	1	-2	-1%	6.5
Cc1cccc(C(=O)NCCN2CCN(c3ccccc3)CC2)c1	-1.0	0	5.2	-5	·	0%	4.2
CCCCCCc1cc2cc(S(=O)(=O)c3ccc(F)cc3)c(=O)oc2cc1O	167*	2	-4.2	-3	-4	·	0.1
COC(=O)[C@H](CCSC)NC(=O)NCCC1=CCCCC1	-5.2	11	-0.8	22	-9	9%	5.1
O=C(Nc1ccc(-c2nnc3n2CCCCC3)cc1)c1cnccn1	0.9	4	2.4	-1	·	-2%	·
Cc1ccc2oc(=O)c3cnn(CC(=O)NCCc4ccsc4)c3c2c1	-0.1	31	1.5	1	-2	-1%	3.4
CCCCC1(Cc2ccc([N+](=O)[O-])cc2)C(=O)N(c2ccccc2)N(c2ccccc2)C1=O	1.7	6	0.8	7	-18	0%	-1.4
COc1cccc(C2CC(=O)NC(SC)=C2C#N)c1 (centres undefined)	?	-2	-2.5	-3	-9	-6%	2.8
CN(C)CCN(Cc1cc2cc3c(cc2nc1Cl)OCO3)C(=O)c1ccco1	-0.8	-2	2.5	-16	-5	·	-5.2
CN(C)c1ccc(/C=N\Nc2ccccn2)cc1	1.7	0	-3.6	-21	?	-2%	1.0
Clc1ccc(OCc2nc(-c3ccc(Br)o3)no2)cc1	0.7	7	3.7	5	·	2%	-2.5
Cc1cc(NC(=O)CCN2C(=O)/C(=C/c3ccccc3Cl)SC2=S)no1	0.5	1	2.2	-20	-7	·	-2.2
Cc1ccc2c(C)nc(/N=C(\N)NC(=O)N3c4ccccc4Sc4ccccc43)nc2c1	·	2&1	4.1&5.0	·	·	0%&-3%	-3.1
CCCS(=O)(=O)N1CCN=C1SCc1cccc2ccccc12	1.7	2	-0.2	0	99*	-14%	-2.0
Cc1cc2c(ncn2C(C)C)c(N)c1C	1.3	-5	1.4	10	?	4%	2.0
O=C1CC(c2ccco2)c2ccc3ccccc3c2N1 (centres undefined)	·	-20	0.4	·	-16	-2%	2.5
COc1ccc(NC(=O)CCc2ccc(OC)c(OC)c2)cn1	-3.7	-3	1.3	6	-57	5%	1.7
CN(CC(=O)Nc1ccccc1Cl)C(=O)c1ccc(Cl)c(S(=O)(=O)N2CCCCCC2)c1	·	-6	1.2	·	-3	-15%	-0.4
O=C(COc1ccc(Br)cc1CO)Nc1ccc(F)cc1	1.2	-2	1.5	-4	0	-3%	4.2
O=C(COC(=O)/C=C/c1ccc(OC(F)F)cc1)NC1CCCCC1	-7.3	-5	3.2	-7	·	-6%	2.7
CCCSc1nc2c(cnn2-c2ccc(Cl)cc2)c(=O)[nH]1	5.3	18	-2.8	8	4	-3%	-7.1
Cc1ccc(NC(=O)c2ccc(Cl)c(S(=O)(=O)NCC3CCCO3)c2)c(O)c1 (centres undefined)	?	25	1.4	-6	-3	18%	-3.6
CCOc1cc(/C=C2/NC(=O)NC2=O)cc([N+](=O)[O-])c1O	2.4	-2	0.6	24	94*	1%	-2.6
CC(=O)Nc1ccc(C(=O)Nc2ccc(S(=O)(=O)NCC3CCCO3)cc2)cc1 (centres undefined)	-0.6	4	-1.0	-3	-10	0%	6.6
CCOc1ccc(CN2C(=O)c3ccccc3C2=O)cc1C(=O)NC1CC(C)(C)NC(C)(C)C1	·	13	-1.9	·	-2	-20%	3.7
COc1ccc(NC(=O)CN2C(=O)c3cccc4cccc2c34)c(OC)c1	2.1	-11	0.6	2	-8	-5%	-1.4
CC1CCCN(C(=O)COC(=O)COc2ccc(C#N)cc2)C1 (centres undefined)	·	-6	-1.3	·	-16	·	-2.0
Cc1ccc(C(=O)NC2(C(Cl)Cl)N=C(c3ccccc3)N=C2N)cc1 (centres undefined)	3.7	28	-1.1	-7	43	33%	1.6
CC(=O)/C(=N/Nc1ccccc1C)N1CCOCC1	-0.8	-2	-0.1	-35	0	3%	0.6
CCOC(=O)c1nc2ccccc2c(=O)[nH]1	6.1	-2	0.0	31	-3	4%	1.5
C/C(=N\NC(=O)C1CCCC1)c1ccc(Cl)c(Cl)c1	·	2	2.0	112*	-8	7%	3.3
CCCN(CCC)C(=O)Cn1c(=O)c2sccc2n2c(=S)sc(-c3ccccc3)c12	4.5	-8	155	0	-3	0%	-8.8
CCOc1ccc(/C=N/n2c(COc3ccccc3)n[nH]c2=S)cc1OC	8.5	5	1.0	-10	-1	-5%	-0.2
COc1ccc(N=C/C=C2\C=C(c3ccccc3)OC(C)(C)O2)cc1	-2.8	29	8.1	-5	·	?	0.5
Cc1nc2c(C)cccn2c1/C(O)=C1\C(=O)C(=O)N(CCN2CCOCC2)C1c1cccs1 (centres undefined)	1.4	-12	-1.2	-4	-17	1%	1.8
COC(=O)c1ncccc1SC	-3.5	-4	6.2	8	-6	·	-4.6
COc1cc(/C=C2\SC(=S)N(CCC(=O)N3CCN(C)CC3)C2=O)cc(OC)c1OC	-6.5	6	4.4	6	-25	11%	0.6
CCC(O)c1c(-c2ccccc2)nn(C)c1Cl (centres undefined)	0.2	-1	3.0	12	1	-2%	4.2
COc1ccc(CCNC(=O)CNC(=O)c2ccco2)cc1	-0.6	1	0.5	-1	-2	·	-0.3
CC(=O)C1=C(C)NC(=O)NC1c1ccccc1 (centres undefined)	1.4	0	-1.6	-4	-7	4%	-0.3
CC1(C)Cc2ccccc2-c2nnc(SCC(=O)Nc3ccc4c(c3)OCO4)n21	-2.2	-1	1.4	-3	1	5%	-1.1
COC(=O)c1cc(F)c(-n2cncn2)c(F)c1	-4.4	11	-1.8	2	-2	3%	-3.3
O=C(O)C1CSC2(c3ccc(Br)cc3)CCC(=O)N12 (centres undefined)	1.2	8	-1.2	-6	-6	·	-2.3
Cc1cccn2cc(CNS(=O)(=O)c3ccc4ccccc4c3)nc12	2.7	3	-0.3	-7	-6	·	-2.1
Cc1cc(C)c(C#N)c(SCC(=O)Nc2ccc3c(c2)OCO3)n1	4.5	-3	-1.5	-13	-12	-16%	4.8
COc1ccc(Cl)cc1NC(=O)CSc1nnc(C)c(=O)n1N	-0.1	-3	-20	3	-1	·	-3.1
CC(C)N(C(=O)[C@H]1CC(CC(=O)NCCN2CCOCC2)C(=O)N2CCc3c([nH]c4ccccc34)[C@]12C)C(C)C (some centres undefined)	·	-11	-0.7	·	·	-5%	-1.4
O=C(CCCSc1ccccc1)Nc1nc(-c2ccccn2)cs1	0.9	1	2.5	-16	-7	8%	-5.3
Nc1c(C(=O)c2ccccc2)oc2ccc(Br)cc12	1.0	-8	2.2	-10	-1	8%	1.4
O=C(O)CCCCCNC(=O)c1cccc(Br)c1	0.9	4	2.3	-3	10	7%	5.6
CCOC(=O)c1c(-c2ccccc2)nc2ccccn12	5.2	-25	3.3	4	-6	4%	0.4
Cc1ccccc1N1CCN(S(=O)(=O)c2cccs2)CC1	2.7	6	4.2	0	10	-1%	1.7
CCn1c(SCC(=O)c2ccc(Cl)cc2)nnc1-c1ccoc1C	1.5	-5	4.3	16	10	9%	3.9

Whole records, quoted from the list. Order of screens: RanGTP-Imp inh, Beta2AR agonist, HNF4A DNA FP, Calb FLC, ALR H2O2 inh, Vif A3G, LANA-H2B inh
COc1ccc(N=C/C=C2\C=C(c3ccccc3)OC(C)(C)O2)cc1 across the screens: -2.8, 29, 8.1, -5, ·, ?, 0.5
COc1cc(/C=C2\SC(=S)N(CCC(=O)N3CCN(C)CC3)C2=O)cc(OC)c1OC across the screens: -6.5, 6, 4.4, 6, -25, 11%, 0.6

Continued:
smiles	RanGTP-Imp inh	Beta2AR agonist	HNF4A DNA FP	Calb FLC	ALR H2O2 inh	Vif A3G	LANA-H2B inh
CC(C)c1ccc(/C=C/C(=O)Nc2ccc(CN3CCOCC3)cc2)cc1	2.6	1	0.5	-2	-6	3%	-1.3
CC1CCCN(C(=O)CSc2nnc(-c3ccco3)n2C)C1 (centres undefined)	-0.5	-13	1.4	14	-4	·	6.4
NNC(=O)C1=NOC2COC3(CCN(c4ncccn4)CC3)OCC12 (centres undefined)	-2.8	0	0.9	4	-9	?	-1.5
Cc1ccc(C)c(C2=NNC(=NCc3ccccc3)SC2)c1	-0.8	-1	-1.7	-5	·	1%	·
COc1cccc(C(=O)O/N=C(\N)c2ccc([N+](=O)[O-])cc2)c1	?	4	-0.4	-5	-1	-2%	1.6
Cc1cc(C)c(NC(=O)CSc2nc(=O)n(CCN3CCOCC3)c3c2CCC3)c(C)c1	0.9	0	-3.2	10	-12	0%	-6.6
Cc1cc2cc3c(cc2nc1SCC(=O)Nc1c(C)cccc1C)CCC3	0.3	-6	0.2	-5	-1	-38%	-10
Clc1cccc(CSc2ccc(-c3ccco3)nn2)c1	-1.1	3	-3.6	36	98*	5%	3.0
COc1cc(NC(=O)c2cc(-c3cccs3)on2)cc(OC)c1OC	28*	-14	2.6	-1	·	0%	·
Cc1onc(C(=O)N2CCN(c3ccccc3F)CC2)c1-c1ccccc1Cl	1.0	4	0.9	-5	·	·	-3.3
CCN(C[C@H]1N[C@@](C)(C(=O)OC)[C@H]2C(=O)N(Cc3ccccc3)C(=O)[C@@H]12)C(=O)Nc1ccc(F)cc1	·	-2	-1.5	·	·	3%	2.8
O=C(N/N=C/c1cn(CC(=O)N2CCOCC2)c2ccccc12)c1cccnc1	2.5	-1	-2.9	-3	1	·	1.1
CCOc1ccc(Cc2nc(C)c(CC(=O)N3CCCCC3)c(=O)[nH]2)cc1	-0.1	9	0.7	-3	3	24%	-1.7
O=C(CN(Cc1ccc(F)cc1)C(=O)c1csnn1)NCc1ccccc1	-4.4	-7	-0.7	-4	-4	-4%	1.7
CCc1ccc(/C=N/NC(=O)c2nnn(-c3nonc3N)c2C(C)C)cc1	-0.1	4	0.1	11	-5	·	-1.1
CCCC1O[C@@H]2CC3C4CCC5=CC(=O)C=C[C@]5(C)C4C(OC(C)=O)C[C@]3(C)[C@]2(C(=O)COC(C)=O)O1 (some centres undefined)	-1.5	5	-1.9	13	-28	18%	1.8
CCOC(=O)C(=O)N1c2ccccc2C(N(C(=O)C(=O)OCC)c2ccccc2)CC1C (centres undefined)	-0.1	-4	0.9	-1	-34	19%	-2.2
S=c1[nH]nc(-c2cc(-c3ccccn3)nc3ccccc23)o1	0.2	0	-0.6	-1	19	13%	2.6
CCN(CC)C(=O)CSc1nnc(SC(C)C(=O)NC2CC2)s1 (centres undefined)	·	-3	-2.7	·	-3	·	1.0
Cc1ccc(NC(=O)Nc2cnccn2)cc1	-0.3	4	-1.6	10	14	4%	1.4
